gsp antagonist – antagonists of gsp mutant (McCune-Albright syndrome). Potency, µM (series often up to 76.9 µM), without a hit: at the highest dose activity change, negative = inhibition, actives largely listed as inhibitors. gsp-mutant cells, cAMP HTRF, 30 min; control for the full effect not named in the record. AID 624288. 340,000 tested, 0.4% active; active = falling curve of any shape with a large fitted effect; inconclusive = falling curve, mostly with a smaller effect; inactive = flat or rising curve; cell line not stated here;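 also: intracellular cAMP measured with PDE inhibitor Ro 20-1724 present during compound exposure; potency is read from the fitted curve at half-maximal effect; % is scaled to controls: 0 for no effect and ±100 for the full control effect; nearly all actives have a fitted effect of over 65% in size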
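HTRF cAMP measurement after 30 min RT detection following 30 min, 37C compound treatment alongside […] (added as 300 uM solution) in G418-selected cells seeded at 2000/well and grown 16–24 h.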
PINK1 expr mod – modulators of PINK1 expression. 410,000 tested, 0.2% active. PINK1 immunofluorescence, high-content cytometry, 24 h. AID 624263. Potency, µM (titrated, usually from 76.6 µM), without a hit: at the highest dose activation (PINK1 increase), most hits filed as activators; active = well fitted activation curve with a large enough effect; inconclusive = small, poorly fitted or top-dose-only effect; inactive = flat fitted curve, though single readings scatter; cell line not stated here;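 also: potency is read from the fitted curve at half-maximal effect; % of control where 0% means no effect; nearly all actives have a fitted effect of over 65% in size; a mitochondrial uncoupler was the plate control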
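Measures PINK1 amount and localization on or inside mitochondria by immunofluorescence. Stable cells get compounds at 5 concentrations for 24 hours before fixation and staining; CCCP controls included.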
ClpP mod – qHTS Assay for Activators of ClpP | ATP-dependent Clp protease proteolytic subunit (Bacillus subtilis (strain 168)), P80244 | purified B. subtilis ClpP, FRET peptide cleavage, 20 min | Potency, µM (titrated, usually from 57.5 µM), for the others: at the top dose activity change, negative = active | 340,000 tested, 1.9% active; active = well fitted falling curve with a large enough effect; inconclusive = small, poorly fitted or top-dose-only effect; inactive = no such curve, though single readings can be large or run the other way; also: potency is read from the fitted curve at half-maximal effect; the source files actives as falling curves though it sought activators and does not explain the sign; nearly all actives have a fitted effect of over 65% in size; many hits overshoot -100%
Target sequence (P80244 whole entry, looked up): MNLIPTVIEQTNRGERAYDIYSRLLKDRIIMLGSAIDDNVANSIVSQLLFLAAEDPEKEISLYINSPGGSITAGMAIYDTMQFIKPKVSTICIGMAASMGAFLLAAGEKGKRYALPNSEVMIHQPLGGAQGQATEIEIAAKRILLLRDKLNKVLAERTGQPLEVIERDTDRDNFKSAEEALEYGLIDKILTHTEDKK
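ClpP 10 microg/mL final, pH 8 Tris/KCl buffer with BSA, glycerol, Tween-20; compound pinned in; FRET-FV substrate; RT 20 min; Ex320/Em430; ΔFRET vs ADEP 5.8 microM, DMSO, no enzyme.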
Menin MLL FP FL – inhibitors of human menin-MLL interaction, wild-type MLL peptide | 290,000 tested, under 10 active | AID 1766 | Fluorescence polarization, fluorescein-MLL peptide displacement from menin | FP activity change, % at 61.4 µM; inconclusive = falling polarisation curve, or a change in total fluorescence; inactive = total fluorescence flat and polarisation flat or rising; no compound was filed as active; the % refers to the polarisation; negative = inhibition;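 also: % of control where 0% means no effect; inhibitors lower the polarisation; unlabelled MLL peptide was the positive control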
gsp agonist – gsp mutant agonism | gsp mutant cells, cAMP HTRF, 30 min; control for the full effect not named in the record | Potency, µM (highest dose often 76.9 µM), for the others: at the top dose activation (cAMP increase), most hits filed as activators | 340,000 tested, 0.13% active; active = well fitted activation curve with a large enough effect; inconclusive = small, poorly fitted or top-dose-only effect, or another doubt; inactive = no such curve, though single readings can be large or run the other way; cell line not stated here;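 also: phosphodiesterase inhibitor Ro 20-1724 added with compounds to block cAMP breakdown; potency is read from the fitted curve at half-maximal effect; nearly all actives have a fitted effect of over 60% in size; about a fifth of the inactives were tested at one dose only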
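Cells stably selected in G418 were plated at 2000/well, grown 16-24 hr, then given compounds in DMSO with the PDE inhibitor […] (300 uM solution added) for 30 min at 37C; cAMP was read by HTRF.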
D2 ag – agonists of human D2 dopamine receptor (beta-arrestin); P14416; DiscoveRx PathHunter D2 beta-arrestin, luminescence, 90 min; 100% = 57 uM dopamine signal; activation, % (no concentration beside the values); 360,000 tested, 0.084% active; in the data active = activation above about 40%; inconclusive = about 15% to 40%; inactive = below about 15%; also: compound concentration not given in the record; the text of the record calls up to 30% inactive
Target sequence (P14416 whole entry, looked up): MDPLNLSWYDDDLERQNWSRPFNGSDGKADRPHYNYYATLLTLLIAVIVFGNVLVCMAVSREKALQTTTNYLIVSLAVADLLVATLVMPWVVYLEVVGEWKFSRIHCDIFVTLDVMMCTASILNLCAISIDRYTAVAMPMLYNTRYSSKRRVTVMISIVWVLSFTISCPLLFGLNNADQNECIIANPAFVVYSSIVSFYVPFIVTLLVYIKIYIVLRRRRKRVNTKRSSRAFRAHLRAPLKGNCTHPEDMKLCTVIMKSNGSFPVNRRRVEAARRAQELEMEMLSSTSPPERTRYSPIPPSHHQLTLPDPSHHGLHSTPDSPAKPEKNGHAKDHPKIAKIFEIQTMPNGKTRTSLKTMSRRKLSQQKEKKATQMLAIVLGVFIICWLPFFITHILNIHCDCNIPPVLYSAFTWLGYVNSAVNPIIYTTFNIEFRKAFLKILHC
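Agonist mode: compounds alone added to overnight-plated D2 PathHunter cells for 90 min at 37 C, with 57 uM final dopamine (EC100) defining full response. Beta-arrestin recruitment detected by chemiluminescent reagent, read after 1 h at ambient temperature.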
Sfp inh – blocks B. subtilis Sfp PPTase activity; 310,000 tested, 3.5% active; Q9F4F7; Biochemical Sfp PPTase activity, qHTS; Potency, µM, for the others: max response, negative = inhibition, actives largely listed as inhibitors; AID 1490; active = well fitted inhibition curve with a large enough effect; inconclusive = small, poorly fitted or top-dose-only effect, or another doubt; inactive = no such curve, though single readings can be large or run the other way;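 also: the enzyme is Sfp with the accession as filed and its product quenches rhodamine fluorescence; potency is read from the fitted curve at half-maximal effect; 0% = enzyme reaction without inhibitor and -100% = no enzyme wells; top concentration of the series not given in the record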
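Compounds were incubated with enzyme (final 15 nM) for 15 min at room temperature before substrate addition started the reaction. Fluorescence at 525 nm excitation, 598 nm emission was recorded immediately and after 30 minutes.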
* hit, by the source's call; u = inconclusive; x = no result given; & = joins results of further samples; [ ] = another dose, or the depositor's remark.

SMILES	gsp antagonist	PINK1 expr mod	ClpP mod	Menin MLL FP FL	gsp agonist	D2 ag	Sfp inh
Cc1ccc(-n2c(SCC(=O)N(C)C3CCS(=O)(=O)C3)nc3ccccc3c2=O)cc1 (configuration not stated)	-11%	11%	x	-0.5	u	-0.7	10%
Clc1ccc(CSc2cc3c(nn2)-c2ccccc2CC3)cc1Cl	3%[15.4 µM]	1.7%	-0.7%	-1.2	-18%	-4.0	12%
Cc1c(NC2=NC3(CCCCC3)Cc3ccccc32)c(=O)n(-c2ccccc2)n1C	5%	-0.1%	-4.0%	-0.1	0%	-3.2	6%
COC(=O)c1c(NC(C)=O)sc(C(=O)Nc2ccccc2)c1C	x	2.2%	x	-0.2	22%[15.4 µM]	1.7	5%
CCN(C(=S)NC(=O)c1ccccc1Br)C1CCCCC1	2%	0.5%	-1.1%	0.4	3%	-2.1	3%
C=CCn1c(C(CC(C)C)CC(C)O)n[nH]c1=S (configuration not stated)	15%	4.5%	x	4.2	6%[15.4 µM]	0.2	-13%
COc1ccc(NC(=O)CN(c2ccccc2)S(=O)(=O)N(C)C)cc1OC	-7%	x	0.1%	-1.0	6%	0.1	12%
CCOC(=O)C(C)Sc1nc(-c2ccco2)cc(C(F)(F)F)c1C#N (configuration not stated)	35µM*	2.2%	u	12	-20%	-5.1	-2%
Cc1ccc(NC(=O)CCC(=O)OC(C)C(=O)c2ccccc2)cc1 (configuration not stated)	5%	-1.9%	x	x	-6%[15.4 µM]	-1.0	10%
Cc1cc(C)cc(C(=O)OCC(=O)NCC(F)(F)F)c1	12%	6.7%	1.1%	1.8	-8%	-2.9	9%
O=C(NCc1ccc(Cl)cc1)C1CCCN1C(=O)Nc1ccccc1 (configuration not stated)	3%	1.5%	-1.4%	1.6	15%[15.4 µM]	0.3	29%
CCCc1cc(=O)[nH]c(SCC(=O)Nc2cccc(S(=O)(=O)N3CCOCC3)c2)n1	-3%	0.1%	-6.9%	x	5%	0.6	x
COc1cccc(N/C(SC)=C(/C#N)C(=O)NCc2cccs2)c1	-8%	3.3%	x	2.7	3%[15.4 µM]	0.8	-12%
Cc1ccc(-n2nc3c(c2NC(=O)CC(C)C)CS(=O)(=O)C3)cc1	0%	0.1%	0.7%	0.7	14%	2.3	26%
COc1cccc(CNCC2CCCO2)c1 (configuration not stated)	6%	8.1%	1.8%	-0.6	29%	-2.8	11%
Cc1ccc(C(=O)CSc2nnc(-c3cccs3)n2C)o1	-2%	0.1%	-3.6%	0.0	-35%[inhibitor]	-3.2	-4%
O=C(COc1ccc([N+](=O)[O-])cc1)Nc1ccc2[nH]c(=O)[nH]c2c1	11%	u	1.2%	x	8%	-4.6	x
CCOC(=O)N/N=C1\CC(C)CC(C)(C)C1 (configuration not stated)	-9%	-2.3%	-1.2%	x	17%[15.4 µM]	-5.9	17%
COC(=O)[C@@H]1C[C@@]2(O)[C@@H](O)[C@@H](O)[C@@H](O)C[C@H]2N1Cc1ccc(C)s1	15%	0.1%	-0.2%	-0.6&3.5	-16%	-7.3	7%&-25%
COCCNC(=O)C1CCCN(Cc2cccc(C(F)(F)F)c2)CC1 (configuration not stated)	x	1.1%	1.4%	x	x	-3.4	x
CCOC(=O)N1CCN(C(=O)C2CCN(S(=O)(=O)c3ccccc3)CC2)CC1	-2%	x	-0.5%	3.3	-19%	0.1	7%
O=C(NC1CCCCCCC1)c1cc(F)c(F)cc1Cl	7%	0.1%	-1.0%	-1.8	20%	-0.1	-3%
COc1ccc2c(c1)c(C(=O)N/N=C/c1cccc(Br)c1)c(C)n2C	u	2.0%	0.8%	2.8	1%[15.4 µM]	-7.6	-2%
CCOc1ccc(N(CC(=O)Nc2c(C)n(C)n(-c3ccccc3)c2=O)S(=O)(=O)c2ccccc2)cc1	-1%	-0.9%	x	-0.9	1%[15.4 µM]	0.8	1%
Cc1c(NC(=O)Nc2ccc(Cl)cc2Cl)c(=O)n(-c2ccccc2)n1C	13%	0.8%	-2.2%	1.6	11%	-1.9	-12%
CC(O)CNc1nc2c(c(=O)n(C)c(=O)n2C)n1Cc1cccc(C(F)(F)F)c1 (configuration not stated)	13%	2.2%	-3.9%	-1.6	u	1.7	8%
C#CCOCCOCCOCCNc1nc(N2CCN(C(=O)[C@H](CO)n3cc([C@@H](N)C(C)C)nn3)CC2)nc(N2CCN(C(=O)[C@H](CCC(=O)O)n3cc([C@@H](N)[C@H](C)CC)nn3)CC2)n1	14%	0.1%	0.9%	x	x	-2.3	x
COc1ccc(NC(=O)COn2nnc3ccc(Cl)cc32)cc1OC	-10%	x	-7.3%	-0.8	u	-1.8	-22%
CCCn1c(CCNc2nc(-c3cccc(Br)c3)cs2)nc2ccccc21	-11%	4.0%	1.3%	x	x	-1.7	x
CCn1c(-c2csc3c2CCC(C)C3)n[nH]c1=S (configuration not stated)	9%	3.9%	2.4%	1.8	2%	-0.3	-2%
CCC(C)C(=O)Nc1cc(C(=O)OC)cc(C(=O)OC)c1 (configuration not stated)	-2%	5.1%[38.3 µM]	-0.5%	-0.5	-57%[inhibitor]	0.3	17%
CC(C)CNC(=O)COC(=O)c1ccc2c(c1)C(=O)N(Cc1ccco1)C2=O	3%	4.3%	x	1.1	2%	1.7	28%
CCc1ccc(NC(=O)CN2C(=O)CC(C)S(=O)(=O)c3ccccc32)cc1 (configuration not stated)	9%	0.5%	0.5%	0.7	11%	1.0	4%
Cc1ccc(NCc2nc3ccccc3n2C)cc1C	0%	-1.8%	1.8%	-1.4	1%[15.4 µM]	-0.4	17%
CCOC(=O)N1CCN(C(=O)CSCC(=O)Nc2nc(-c3ccc4c(c3)OCO4)cs2)CC1	35µM*	-21%[38.3 µM]	-2.2%	2.9	-19%	-1.0	18%
CC(=O)c1cccc(N(CC(=O)Nc2cc(C)cc(C)c2)S(C)(=O)=O)c1	-16%	0.0%	x	-3.4	1%[15.4 µM]	3.2	20%
CSc1ncccc1C(=O)OCC(=O)Nc1ccc(S(=O)(=O)N2CCCC2)cc1	-16%	1.2%	-1.1%	x	-6%	-1.0	0%
CCOc1ccc(S(=O)(=O)NCCc2cn3ccccc3n2)cc1	9%	0.4%	22µM*	x	-8%	1.8	11%
N=c1sccn1CC(=O)Nc1ccc(Cl)cc1[N+](=O)[O-]	1%	-1.3%	x	2.4	0%[15.4 µM]	0.1	9%
O[C@@H]1CN(C2CCN(Cc3ccccc3)CC2)CC[C@H]1N1CCCCCC1	-1%	u	x	x	-25%	3.3	x
COc1ccc(OC)c(S(=O)(=O)Nc2ccccc2O)c1	4%	-2.6%	-0.6%	x	6%[15.4 µM]	-5.7	x
CC(=O)N1CCN(c2ccc(NCc3ccccc3)cc2)CC1	-19%	-2.3%	-0.7%	3.4	26%	4.3	45µM*
COc1ccc(NC(=O)CSc2nccn2C)c([N+](=O)[O-])c1	x	0.5%	x	-8.3	-5%[15.4 µM]	6.3	8%
CN(C)NC1CC(=O)N(c2ccccc2)C1=O (configuration not stated)	8%	-1.1%	x	0.9	-22%[15.4 µM]	-1.5	-5%
COc1ccccc1OCC(=O)Nc1ccccc1C(=O)Nc1cccc(C(=O)O)c1	6%	2.2%	x	0.3	31%[15.4 µM]	-5.6	14%

2 records drawn at random from the list so far, as already listed:
SMILES	gsp antagonist	PINK1 expr mod	ClpP mod	Menin MLL FP FL	gsp agonist	D2 ag	Sfp inh
CC(=O)N1CCN(c2ccc(NCc3ccccc3)cc2)CC1	-19%	-2.3%	-0.7%	3.4	26%	4.3	45µM*
Cc1ccc(NCc2nc3ccccc3n2C)cc1C	0%	-1.8%	1.8%	-1.4	1%[15.4 µM]	-0.4	17%

(continued)
SMILES	gsp antagonist	PINK1 expr mod	ClpP mod	Menin MLL FP FL	gsp agonist	D2 ag	Sfp inh
Cc1ccccc1CS(=O)(=O)c1cn(CC(=O)N2CCOCC2)c2ccccc12	3%	-0.1%	0.4%	x	-24%	3.8	-13%
COC(=O)c1cc(NC(=O)Nc2cc(OC)ccc2OC)cc(C(=O)OC)c1	4%	x	-11%	1.3	35%	3.3	13%
CCN(CC)S(=O)(=O)c1cc(C(=O)Nc2cc(C)on2)c(Cl)cc1Cl	-14%	-0.9%	-1.6%	-1.0	-5%[15.4 µM]	-0.8	15%
CN(C(=O)c1ccc(Cl)c(S(=O)(=O)N2CCOCC2)c1)c1ccccc1C(=O)O	-9%	x	-0.6%	1.7	-11%	1.3	14%
CSCC[C@H](NC(=O)C(C)Oc1ccc(Cl)cc1)c1nc2ccccc2[nH]1 (some centres not stated)	-2%	-2.3%	x	4.1	u	-1.8	24%
CCOC(=O)Nc1cc(C(=O)OC)ccc1C	4%	-3.5%[38.3 µM]	-8.0%	3.2	-58%	0.2	0%
O=C(NNC(=S)Nc1cccc(C(F)(F)F)c1)c1cccc(Cl)c1	-5%	16µM*	0.2%	5.3	9%[15.4 µM]	-9.7	1%
O=C(O)c1ccccc1NC(=O)c1cc2ccccc2oc1=O	32µM*	-0.4%	-6.2%	-14	u	-1.1	u
c1cnc(NCCSSCCNc2ncccn2)nc1	x	1.6%	-3.7%	x	0%	-3.1	x
CC1CCN(S(=O)(=O)c2ccc3c(c2)oc(=O)n3CC(=O)NCc2ccc3c(c2)OCO3)CC1	u	0.6%	-2.6%	-0.3	3%	-0.6	17%
CCOC(=O)N1CCN(C(=O)c2ccc3c(=O)n4c(nc3c2)CCCCC4)CC1	8%	-0.1%	1.2%	-2.9	11%	-2.1	4%
Cc1ccc(OCCC(=O)Nc2ccc(S(=O)(=O)N3CCCC3)cc2)cc1	-15%	1.2%	-0.8%	x	-16%	0.2	x
Clc1ccc2nc(C3CCCCC3)c(Cc3ccccc3)n2c1	x	4.1%	-5.5%	x	x	-4.8	x
CCc1ccccc1NC(=O)CNC(=O)c1cn(Cc2ccccc2)nc1-c1cccnc1	0%	-1.5%	-3.1%	x	-19%	0.5	x
COc1ccc(-c2nc(C)c(C(C)=O)n2O)cc1	1%	3.0%	-0.6%	5.4	6%	-5.1	-9%
COc1ccc(S(=O)(=O)N2CCC(C(=O)N[C@@H](C)C(=O)NCc3ccco3)CC2)cc1	x	1.5%	1.4%	x	0%	-2.2	x
Cc1ccc(S(=O)(=O)N2CCOCC2)cc1C(=O)Nc1ccc(-c2cn3ccsc3n2)cc1	-11%	1.5%	-1.1%	4.0	-13%	3.1	-2%

Screening results (PubChem)
